Menin-MLL FL inh – qHTS Assay for Inhibitors Targeting the Menin-MLL Interaction in MLL Related Leukemias: Competition With Fluorescein Labeled MLL-derived Peptide; Fluorescence polarization, fluorescein-MLL peptide displacement from menin; 290,000 tested, under 10 active; AID 1766, 2009; FP activity change, % at 61.4 µM; inconclusive = falling polarisation curve, or a change in total fluorescence; inactive = total fluorescence flat and polarisation flat or rising; no compound was filed as active; the % refers to the polarisation; negative = inhibition;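 further: % of control where 0% means no effect; inhibitors lower the polarisation; unlabelled MLL peptide was the positive control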
TRPV1 potentiator – HTS Assay for Compounds that Act as Potentiators of the Vanilloid Receptor 1; hit rate 0.02% among 320,000; Transient receptor potential cation channel subfamily V member 1 (Homo sapiens), Q8NER1; AID 540277, 2011; TRPV1-expressing cells, Fluo-8 calcium influx, capsaicin EC20 potentiation; host cell line not named in the record; control for the full effect not named in the record; potentiation, % at 8.33 µM; active means potentiation above 80%; inconclusive means 30% to 80%; inactive means below 30%; further: 0% is about no effect
Target sequence (Q8NER1 whole entry, looked up): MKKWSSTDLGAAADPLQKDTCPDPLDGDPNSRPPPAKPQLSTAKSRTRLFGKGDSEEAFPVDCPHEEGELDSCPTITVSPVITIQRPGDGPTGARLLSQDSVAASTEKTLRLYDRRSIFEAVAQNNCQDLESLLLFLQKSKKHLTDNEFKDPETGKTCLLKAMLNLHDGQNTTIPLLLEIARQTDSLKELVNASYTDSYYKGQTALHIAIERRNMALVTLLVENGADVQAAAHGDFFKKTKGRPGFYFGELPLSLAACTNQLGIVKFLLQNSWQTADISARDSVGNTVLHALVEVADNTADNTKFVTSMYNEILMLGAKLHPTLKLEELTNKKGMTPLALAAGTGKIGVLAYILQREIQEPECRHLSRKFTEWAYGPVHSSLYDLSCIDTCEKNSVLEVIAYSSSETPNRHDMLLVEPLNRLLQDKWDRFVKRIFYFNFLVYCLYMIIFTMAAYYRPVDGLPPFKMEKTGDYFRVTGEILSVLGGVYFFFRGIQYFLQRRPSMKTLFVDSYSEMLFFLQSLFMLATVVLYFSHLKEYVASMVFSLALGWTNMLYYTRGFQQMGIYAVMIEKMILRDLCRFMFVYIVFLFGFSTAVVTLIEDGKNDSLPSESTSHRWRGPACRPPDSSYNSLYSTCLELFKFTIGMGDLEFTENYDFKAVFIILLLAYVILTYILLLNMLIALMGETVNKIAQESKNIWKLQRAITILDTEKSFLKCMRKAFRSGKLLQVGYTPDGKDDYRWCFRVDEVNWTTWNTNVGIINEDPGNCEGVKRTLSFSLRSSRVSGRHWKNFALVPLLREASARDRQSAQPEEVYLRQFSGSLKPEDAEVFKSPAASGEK
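Fluo-8 calcium influx in TRPV1-expressing cells, kinetic read (ex 480/em 520 nm). Compound added and read 3 min for agonist activity, followed by capsaicin at EC20 final and 2 min further read for enhancement.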
PINK1 modulator – A Quantitative High throughput Screen to Identify Chemical Modulators of PINK1 Expression; PINK1 immunofluorescence, high-content cytometry, 24 h; hit rate 0.2% among 410,000; Potency, µM (titrated, usually from 76.6 µM), without a hit: at the top dose activation (PINK1 increase), actives largely listed as activators; AID 624263, 2012; active = well fitted activation curve with a large enough effect; inconclusive = small, poorly fitted or top-dose-only effect; inactive = flat fitted curve, though single readings scatter; cell line not stated here;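 further: potency means the concentration at half of the fitted maximal effect; % of control where 0% means no effect; nearly all actives have a fitted effect of over 65% in size; a mitochondrial uncoupler was the plate control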
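Stable cell line, 250 cells/well, 12 h attachment; compounds pinned at 5 concentrations, 24 h; CCCP control. Fixed with nuclear dye, primary antibodies 12 h at 10 degrees C, secondary plus cell stain; laser-scanning cytometer read.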
Sfp inh – qHTS Assay for Inhibitors of Bacillus subtilis Sfp phosphopantetheinyl transferase (PPTase); 4'-phosphopantetheinyl transferase ffp (Bacillus subtilis), Q9F4F7; Biochemical Sfp PPTase activity, qHTS; Potency, µM, for the others: max response, negative = inhibition, most hits filed as inhibitors; hit rate 3.5% among 310,000; active means well fitted inhibition curve with a large enough effect; inconclusive means small, poorly fitted or top-dose-only effect, or another doubt; inactive means no such curve, though single readings can be large or run the other way;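 further: the enzyme is Sfp with the accession as filed and its product quenches rhodamine fluorescence; potency means the concentration at half of the fitted maximal effect; 0% = enzyme reaction without inhibitor and -100% = no enzyme wells; top concentration of the series not given in the record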
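Sfp 15 nM + cpd, 15 min RT; start w/ rhodamine-CoA 5 uM, BHQ-2-YbbR 12.5 uM (final); 50 mM Hepes pH 7.6, 10 mM MgCl2, 0.01% NP-40, 0.01% BSA; read 525/598 nm at 0 and 30 min.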
TRPML1 ag – qHTS for Agonists of the Human Mucolipin Transient Receptor Potential 1 (TRPML1); hit rate 0.12% among 410,000; AID 624414, 2012; Mucolipin-1 (Homo sapiens), Q9GZU1; activation, % (no concentration beside the values); TRPML1-expressing cells, Ca2+ dye fluorescence, FDSS; host cell line not named in the record; reference of the full effect not given here; in the data active = activation above about 50%; inconclusive = about 30% to 50%; inactive = below about 30%; further: 0% is about no effect; the text of the record puts the active cut at 80%
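In this qHTS format, compounds were pin-transferred onto Ca8-dye-loaded TRPML1-DL cells induced with Tet overnight, and intracellular Ca2+ fluorescence was recorded kinetically for 110 s after a 10 s baseline. A subsequent 4uM final 54-4 (EC80) addition followed by a second 110 s read served as the antagonist phase.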
ClpP mod – qHTS Assay for Activators of ClpP; hit rate 1.9% among 340,000; purified B. subtilis ClpP, FRET peptide cleavage, 20 min; Potency, µM (top dose mostly 57.5 µM), for the others: at the highest dose activity change, negative = active; AID 651965, 2013; active = well fitted falling curve with a large enough effect; inconclusive = small, poorly fitted or top-dose-only effect; inactive = no such curve, though single readings can be large or run the other way; further: potency means the concentration at half of the fitted maximal effect; the source files actives as falling curves though it sought activators and does not explain the sign; nearly all actives have a fitted effect of over 65% in size; many hits overshoot -100%
Target sequence (P80244 whole entry, looked up): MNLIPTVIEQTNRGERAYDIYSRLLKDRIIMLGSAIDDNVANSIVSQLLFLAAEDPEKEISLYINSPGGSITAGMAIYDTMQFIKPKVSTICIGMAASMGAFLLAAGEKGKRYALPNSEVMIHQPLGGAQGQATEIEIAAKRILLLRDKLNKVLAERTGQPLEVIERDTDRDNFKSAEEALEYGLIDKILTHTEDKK
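Buffer: 100 mM Tris/HCl pH8, 100 mM KCl, 0.05% low protease BSA, 2.5% glycerol, 0.01% Tween-20. ClpP 10 microg/mL final; 20 min RT; delta FRET normalized to ADEP and DMSO controls.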
TRPML1 blocker – qHTS for Inhibitors of the Human Mucolipin Transient Receptor Potential 1 (TRPML1); Mucolipin-1 (Homo sapiens), Q9GZU1; TRPML1-inducible cells, Ca2+ dye fluorescence, FDSS; stronger effect = lower value; inhibition of EC80 agonist-evoked calcium signal; activity change, negative = inhibition, % (no concentration beside the values); hit rate 0.02% among 390,000; AID 624415, 2012; in the data active means activity change below about -50%; inconclusive means about -30% to -50%; inactive means above about -30%;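 further: stimulus is agonist 54-4 at its EC80 concentration; on the % scale 0 is the no-effect control and ±100 the full control effect; compound concentration not given in the record; the text of the record puts the active cut at -80%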
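Tet-induced TRPML1-DL cells loaded with Ca8 no-wash calcium dye were read kinetically on FDSS. Compound addition was followed by EC80 agonist 54-4 (4 uM final); inhibition was read over 110 s.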
* = called active by the depositor; ? = inconclusive; / = no result given. Compounds as they come; overall some 4.4% were active at least once.

SMILES	Menin-MLL FL inh	TRPV1 potentiator	PINK1 modulator	Sfp inh	TRPML1 ag	ClpP mod	TRPML1 blocker
CCCCCC1CC(CC(C)C(=O)Nc2nncs2)C(=O)O1 (configuration not stated)	1.2	-4.5	1.5%	14.2%	0.4	-1.7%	-1.4
CCCCN(CCCC)c1cn[nH]c(=O)c1Cl	0.9	-1.8	0.2%	1.9%	0.1	-0.5%	11.6
CC(C)N(Cc1c(O)ccc2c(=O)c(-c3ccc(Cl)cc3)coc12)C(C)C	-1.2	24.7	-2.5%	-10.2%	-0.5	-3.9%	9.8
Cc1ccc2nc(N/N=C/c3ccco3)cc(C)c2c1	2.1	-15.5	3.1%	-0.6%	-0.1	-10.3%	4.5
COc1ccccc1C(=O)COC(=O)c1c(-c2ccccc2)noc1C	/	-0.5	1.3%	/	2.0	/	-2.5
O=C(Nc1ccc(S(=O)(=O)N2CCCCCC2)cc1)C1CCCO1 (configuration not stated)	3.5	-40.7	-1.5%	12.7%	1.1	-5.9%	19.2
O=C(Nc1ccc2ncccc2c1)c1cc(Cl)ccc1Cl	-1.6	-5.5	-1.5%	9.4%	1.4	/	20.1
NC(N)=Nc1nc(-c2ccccc2)c2ccccc2n1	-5.5	8.8	0.5%	50.1µM*	-0.2	/	11.5
O=C(Nc1cccc2ccccc12)c1ccc([N+](=O)[O-])cc1	1.0	-10.3	4.8%	-8.0%	-1.0	0.2%	-7.5
CCCS(=O)(=O)c1c(S(=O)(=O)CCC)c2c(C)cccn2c1C(=O)N/N=C/c1cc(O)cc(O)c1	2.9	-4.4	0.8%	6.3%	-0.1	-2.9%	13.3
CCCCNC(=O)Nc1ccccc1Br	1.3	-16.7	4.6%	-24.2%	0.6	0.1%	4.2
C=CCn1c(SCC(=O)Nc2sccc2C(N)=O)nc2ccccc2c1=O	4.9	-1.1	5.4%	-1.0%	1.2	18.3%	36.2
CC(C)(CNC(=O)c1cccc(S(=O)(=O)Nc2ccc(Br)cc2)c1)N1CCOCC1	/	-2.5	0.8%	/	0.1	-0.7%	3.7
Cc1cc(C(=O)O)ccc1NCc1cccnc1	-2.5	-7.8	-0.8%	-1.0%	-0.3	-0.6%	16.5
O=C(CN1CCC(O)(c2ccccc2F)CC1)NCCc1c[nH]c2ccccc12	4.7	6.3	/	3.3%	-0.1	-2.5%	-9.3
CCC(C)(C(=O)NC1CCCC1)N(C(=O)CNC(=O)c1ccccc1)c1c(C)n(C)n(-c2ccccc2)c1=O (configuration not stated)	0.2	-11.4	0.9%	6.6%	1.2	/	-18.4
CC(C)(C)OC(=O)NCCCCCNC(=O)c1[nH]cnc1C(=O)Nc1cccc(Cl)c1	/	22.1	1.3%	/	0.6	0.1%	18.7
O=C1NC(c2ccc(Cl)cc2)=COc2ccccc21	0.9	29.4	5.1%	4.2%	-1.3	/	-0.3
O=[N+]([O-])c1ccc(Cl)c2c1C1C=CCC1C(c1ccccn1)N2 (configuration not stated)	-6.8	-31.3	8.4%	28.2µM*	-0.3	/	-12.4
Nc1nnc(SCC(=O)Nc2ccc3c(c2)OCCO3)s1	2.3	-0.4	/	9.4%	0.0	-3.7%	-18.9
O=C(c1ccco1)c1cn(CCOc2ccc(Cl)cc2)c2ccccc12	/	/	0.3%	/	-0.2	-0.7%	-12.7
Cc1ccc(N=CC2=C(O)CC(c3ccc(Cl)cc3)CC2=O)cc1 (configuration not stated)	9.7	-7.0	14.1%	2.8%	0.8	8.0%	-9.3
Cc1ccc2nc(-c3ccc(F)cc3)c(Cc3cccc(Cl)c3)n2c1	/	/	?	/	2.7	4.1%	62.1
CCN1C(=O)[C@H]2[C@@H](c3ccc(-c4cccc(Cl)c4)cc3)N[C@@](Cc3ccccc3)(C(=O)OC)[C@H]2C1=O	/	-40.0	4.3%	/	1.2	-13.9%	-2.6
O=C(O)C(CCc1ccccc1)N1CCOCC1 (configuration not stated)	/	/	0.4%	/	-0.4	-0.1%	17.8
COC(=O)c1c(NC(=O)C2CCCCC2)sc2c1CC(C)(C)NC2(C)C	-8.0	-2.4	1.7%	-17.5%	-0.4	-9.3%	-20.7
Cc1ccc(CNC(=O)CNC(=O)[C@@H]2Cc3ccccc3CN2)cc1	2.1	0.8	-1.0%	-4.4%	-0.3	-1.2%	32.3
Cn1c(SCC(=O)N/N=C/c2ccccn2)nnc1-c1ccccc1	1.4	/	1.3%	44.7µM*	0.3	/	-7.0
COc1cccc(NC(=O)C(=O)NCC2CCCN2S(=O)(=O)c2cccs2)c1 (configuration not stated)	/	/	1.2%	/	-0.5	0.7%	4.2
C=C1CCN([C@H](C(=O)NCc2ccc(Cl)cc2)C(C)C)S(=O)(=O)c2ccccc21	-3.6	-17.6	-0.6%	-28.0%	0.7	1.0%	-0.4
COC(=O)CN(c1cccc(C)c1)S(=O)(=O)c1ccccc1	/	1.1	-0.1%	14.2%	0.1	0.2%	6.9
Nc1ccc(C(=O)NCCCSc2ccccc2)cc1[N+](=O)[O-]	?	14.0	0.7%	9.8%	4.5	/	10.5
Cc1cc(C)c(NC(=O)COC(=O)C23CC4CC(CC(O)(C4)C2)C3)c(Cl)c1	/	/	1.1%	/	0.4	1.5%	3.0
CN(Cc1ccccc1)C(=S)Nc1cccnc1	1.1	2.2	1.8%	9.0%	-0.5	/	-2.7
Nc1ncnc2c1ncn2[C@@H]1O[C@H](C(=O)N2CCN(c3ccc(Cl)cn3)CC2)[C@@H](O)[C@H]1O	/	/	7.2%	/	1.3	4.2%	-2.0
O=C(N/N=C/c1ccc(Cl)cc1)c1cc(-c2cccnc2)nc2ccccc12	1.0	8.8	0.1%	-10.5%	1.0	-0.2%	30.0
Cc1cc(S(=O)(=O)NCC(c2ccco2)S(=O)(=O)c2cccs2)ccc1F (configuration not stated)	/	/	-0.7%	/	2.1	-1.3%	16.0
N#CC1=C(c2ccc(-c3ccccc3)cc2)COC1=O	14.0	-7.6	0.1%	16.7%	1.0	/	8.8
CC(c1nnc(SCC(=O)Nc2ccc3[nH]c(=O)[nH]c3c2)n1Cc1ccccc1)N(C)C (configuration not stated)	-1.4	8.6	-2.1%	-15.8%	0.0	-4.3%	-16.3
Cc1ccc(C(=O)Nc2sc3c(c2C(=O)O)CCCCC3)o1	1.4	0.5	-2.3%	-1.3%	-0.4	-9.1%	-4.2
CCOC(=O)C1=C(C)N=C2SCCC(=O)N2C1c1cc(Br)ccc1OC (configuration not stated)	/	/	6.2%	/	-0.9	-0.7%	2.7
O=C(Nc1ccccc1)Nc1ccc(S(=O)(=O)N2CCCCC2)cc1	-0.7	-23.0	9.8%	-3.8%	2.3	0.7%	5.8
C/C(CC(=O)Nc1ccc(N(C)C)cc1)=N\NC(=O)c1ccccn1	1.4	-7.2	?	-23.3%	0.7	-6.2%	10.0
COC(=O)C(CCSC)NC(=O)c1cc2c(n(-c3ccccc3)c1=O)CCCC2=O (configuration not stated)	6.0	26.1	0.6%	14.5%	0.6	3.7%	-10.8
CC(C)CN1CCc2nc(N3CCN(C)CC3)ncc2C1	/	/	2.4%	/	1.5	-1.1%	-14.3
O=C(NCc1ccccc1Cl)c1ccc(Nc2nc3ccccc3n3nnnc23)cc1	/	-0.3	-0.4%	/	1.8	4.0%	12.2
N#Cc1cn(Cc2cccc(Cl)c2)c2ccccc12	7.4	6.4	5.5%	?	2.5	-5.7%	29.5
CN(C(=O)c1cncc(Br)c1)C1C2CC3CC(C2)CC1C3 (configuration not stated)	3.7	-18.3	-2.0%	-2.1%	-1.1	-0.7%	11.0
CCn1ccc2cc(S(=O)(=O)N3CCCN(C(=O)Nc4ccc(C)c(F)c4)CC3)ccc21	/	/	-0.9%	/	3.5	-14.5%	30.6
NS(=O)(=O)c1ccc(NC(=S)Nc2ccc(Br)c(Cl)c2)cc1	1.4	-1.6	?	56.2µM*	-0.4	/	7.2
Cc1nnc(SCC(=O)N(CC(C)C)C2CCS(=O)(=O)C2)s1 (configuration not stated)	/	-5.5	-1.1%	/	2.2	?	-12.2
O=C(/C=C/c1cccc([N+](=O)[O-])c1)c1ccc2c(c1)OCCO2	-0.6	-10.1	1.0%	-7.1%	0.1	-2.1%	31.7
O=C(CCCC(=O)NN=Cc1cccc(O)c1)NN=Cc1cccc(O)c1	/	/	1.0%	/	1.1	-3.1%	27.8
O=C1C2C3C=CC(C2C(=O)N1c1nccs1)C1C(=O)N(c2nccs2)C(=O)C31 (configuration not stated)	-4.9	5.8	1.6%	13.9%	-0.2	/	-5.6
CC(C)C[C@@H]1NC(=O)[C@H](Cc2ccc(O)cc2)NC(=O)[C@H](CCC(N)=O)NC(=O)c2cc([N+](=O)[O-])cc(I)c2NCC[C@@H](C(N)=O)NC1=O	-2.0	9.7	/	1.8%	/	/	/
Cc1ccc(S(=O)(=O)NNC(=O)c2cnn(-c3ccccc3)c2C(F)(F)F)cc1	6.7	15.0	0.0%	0.2%	3.0	-0.7%	25.7
COc1ccc2[nH]cc(CCNc3cc(-c4ccc(C(=O)N(C)C)cc4)ncn3)c2c1	-1.1	/	1.5%	7.4%	/	/	/
COc1cc(-c2nc(-c3ccc4c(c3)-c3ccccc3S4(=O)=O)c(-c3ccccc3)[nH]2)cc(OC)c1O	2.0	-10.7	-2.3%	10.5%	-0.5	0.4%	-11.0
CCN(CC)S(=O)(=O)c1cccc(C(=O)N[C@H](C(=O)Nc2nc3ccccc3s2)C(C)C)c1	-2.0	10.1	11.4%	6.4%	1.1	0.2%	14.4
